Bioassay records from PubChem BioAssay.
Arbovirus anti = arbovirus infection inhibition; arbovirus infection cell-based antiviral screen; inhibition, % at 10 µM; 200,000 compounds, 0.37% hits;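 active = inhibition from about 30%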;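 also: bluetongue infection of BSR cells; cell survival read as ATP light after 72 h; 0% = infected wells without compound and 100% = uninfected wells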
Mtb H37Rv = M. tuberculosis H37Rv growth inhibitors, H37Rv strain (AID 1626); 220,000 compounds, 0.95% hits; inhibition, % at 10 µM; hits with a dose series show IC50 in µM; M. tuberculosis H37Rv growth inhibition; higher % means a stronger effect;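 active = confirmed in a dose series; inconclusive = inhibition above 80% but not taken into the dose series; inactive = below 80% or under 30% at every dose of the series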;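 also: bacteria incubated seven days before Alamar blue readout; 0% = bacteria only wells and 100% = bacteria with antibiotic wells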
RecA intein inh = Mtb RecA intein splicing inhibition; cell-free RecA intein splicing, fluorescence; P9WHJ3; 290,000 compounds, 0.75% hits; inhibition, %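 (about 9 µM by stock and volumes)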; in the data active = inhibition above about 30%; inconclusive = no clear call, values can overlap the other calls;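 also: 0% = vehicle wells and 100% = reference inhibitor control wells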
Target sequence (P9WHJ3 whole entry, looked up): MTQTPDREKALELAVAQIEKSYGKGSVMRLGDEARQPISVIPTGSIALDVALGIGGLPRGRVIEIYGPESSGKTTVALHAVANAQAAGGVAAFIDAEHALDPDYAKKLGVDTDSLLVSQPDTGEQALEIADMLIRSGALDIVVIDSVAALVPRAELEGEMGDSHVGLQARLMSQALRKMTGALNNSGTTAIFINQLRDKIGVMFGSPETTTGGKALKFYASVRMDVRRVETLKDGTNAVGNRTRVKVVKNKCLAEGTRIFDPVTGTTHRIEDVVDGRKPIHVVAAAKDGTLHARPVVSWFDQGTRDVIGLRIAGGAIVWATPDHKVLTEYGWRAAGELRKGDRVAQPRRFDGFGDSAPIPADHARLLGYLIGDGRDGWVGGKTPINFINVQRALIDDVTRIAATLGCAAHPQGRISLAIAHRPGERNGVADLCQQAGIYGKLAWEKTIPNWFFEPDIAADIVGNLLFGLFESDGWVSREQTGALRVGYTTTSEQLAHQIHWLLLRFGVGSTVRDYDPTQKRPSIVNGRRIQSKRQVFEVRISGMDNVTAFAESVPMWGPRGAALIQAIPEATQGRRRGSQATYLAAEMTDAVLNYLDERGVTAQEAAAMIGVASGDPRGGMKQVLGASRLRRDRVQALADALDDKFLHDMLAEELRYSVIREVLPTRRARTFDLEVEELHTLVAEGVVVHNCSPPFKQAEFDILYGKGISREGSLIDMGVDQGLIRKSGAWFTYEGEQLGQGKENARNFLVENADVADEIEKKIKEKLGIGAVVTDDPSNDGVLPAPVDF
YopH PTP inh = blocks Yersinia enterocolitica YopH tyrosine phosphatase | 140,000 compounds, 0.16% hits | AID 898 | fluorescence Ex485/Em525 | inhibition, %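 (about 10 µM by stock and volumes)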;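 active = inhibition of 50% or more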;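 also: controls were vehicle for no effect and minimum signal wells for full effect; inactives centre near -20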
Mtb bLac sens = beta-lactam sensitization of Mtb H37Rv; M. tuberculosis H37Rv growth with meropenem, percent inhibition; hits of this screen are not shown here; inhibition, % at 25 µM; 330,000 compounds, 0.27% hits; AID 434955;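 active = about 74% or more and at least 40 points above the plate without the antibiotic, then above 30% in a dose series; inconclusive = first-round hits that could not be retested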;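 also: growth measured after seven days incubation then overnight dye step; 0% = bacteria only wells and 100% = bacteria with antibiotic; twin plates without the antibiotic show which effects depend on it; some results filed as inactive read as strong as hits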
Arbovirus anti repeat = second read-out of Arbovirus anti, no call of its own (marks repeat the call); inhibition, %; measured here: 10K subset replicate screen; many hits read low in the repeat;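 first of two repeat runs on a subset; 0% = infected and 100% = uninfected wells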
An asterisk follows results filed as active; u = inconclusive; x = no result given. The list is partial, so the mix of outcomes need not match the whole.

SMILES	Arbovirus anti	Mtb H37Rv	RecA intein inh	YopH PTP inh	Mtb bLac sens	others
O=C(O)c1cc(=O)c2cc(Cl)ccc2o1	-2.1	2.2%	0.8	-68.2	0.9
CC(=O)NC12CC3CC(C1)CC(C(=O)Nc1nc4ccc(S(C)(=O)=O)cc4s1)(C3)C2	x	x	-2.1	x	-12.7
CCN(CC(=O)Nc1ccccc1C(F)(F)F)C(=O)CCS(=O)(=O)c1ccc(C)cc1	x	x	-0.3	x	-11.8
Cc1ccc(N2C(=O)C3C4CC(=O)C(c5ccccc54)C3C2=O)cc1 (stereo not drawn)	5.5	-17.2%	0.7	-33.4	-2.5
COc1cccc(N2CC(C(=O)Nc3ccc(C(=O)OC(C)C)cc3)CC2=O)c1 (stereo not drawn)	5.9	56.8%	3.2	-23.6	87.1
CC1CC(C)CN(c2cc(N(C)CCO)c([N+](=O)[O-])c3nonc23)C1 (stereo not drawn)	0.2	5.2%	12.7	x	-6.1
Cc1nc([N+](=O)[O-])cn1CCC#N	x	-7.7%	-0.2	x	-4.5
COc1ccc2[nH]c(C)c(C(=O)CN(C)CC3OCCO3)c2c1	x	-4.7%	-0.2	x	-1.6
CCN1CCN(CCNC(=O)c2ccc(/C=C3/Sc4ccccc4N(Cc4cccc(Cl)c4)C3=O)cc2)CC1	-30.4	61.2%	7.2	x	82.8
Cc1cc(C)c2[nH]c(=O)c(CN(Cc3ccco3)C(=O)C3CCCO3)cc2c1 (stereo not drawn)	1.1	1.6%	x	-27.7	-0.1
CCOc1cc(NS(=O)(=O)c2ccc(OC)cc2)c(OCC)cc1NC(C)=O	-9.8	1.1%	-2.1	x	-0.9
CCSc1sccc1C1C(C#N)=C(N)N(c2cccnc2)C2=C1C(=O)CC(C)(C)C2 (stereo not drawn)	13.1	2.6%	-1.3	-16.7	-0.6	Arbovirus anti repeat=1.3
Nc1nc(CSc2ccccn2)nc(Nc2ccccc2)n1	-8.3	-12.3%	x	-21.4	4.7
COCCNC(=O)CN1C(=O)c2cccc3cccc1c23	x	x	-23.5	x	2.6
COc1cccc(C(=O)NC2CCN(CC(=O)Nc3nccs3)CC2)c1	-4.1	-12.9%	0.9	-8.2	-9.6
CC(Cl)C(=O)Nc1cc(C(C)(C)C)nn1-c1ccccc1 (stereo not drawn)	-6.4	2.1%	-0.2	x	5.1
Cc1c(C)c(C)c(S(=O)(=O)NCCc2ccccn2)c(C)c1C	x	x	1.2	x	5.6
CCOC(=O)NC(NC(=O)OCC)C(=O)c1ccc(F)cc1	2.9	-3.4%	-0.2	-32.2	-2.7
Cc1cc(C)cc(NC(=O)Cn2nnc(C(=O)NCCc3ccccc3)c2N)c1	x	x	-0.4	x	4.8
Clc1ccc(CNc2ccc(CNc3ncn[nH]3)cc2)c(Cl)c1	x	1.0%	1.5	x	2.6
CC1CCCCC1NC(=O)CSc1ccc([N+](=O)[O-])cc1 (stereo not drawn)	x	-9.6%	0.5	x	-2.1
O=C(c1ccccc1)c1ccccc1N1C(=O)C=CC1=O	x	-7.7%	x	x	-3.4
CC1(O)c2ccccc2C(=O)N1Cc1ccccc1 (stereo not drawn)	1.1	-4.1%	0.3	-18.7	5.2
O=C(CN(C(=O)CNS(=O)(=O)c1ccccc1)c1ccc(F)cc1)NCc1ccco1	x	x	-0.7	x	-2.5
c1cnc(-c2noc(CN3CCN(C4CCCC4)CC3)n2)cn1	2.5	-6.1%	1.3	x	1.0
Going on with the list.
SMILES	Arbovirus anti	Mtb H37Rv	RecA intein inh	YopH PTP inh	Mtb bLac sens	others
CC1CCN(C(=O)CSc2ccc(-c3ccc4c(c3)OCCO4)nn2)CC1	x	x	1.5	x	1.1
COCCOC(=O)C1=C(C)NC(=S)NC1c1cccs1 (stereo not drawn)	-7.5	-1.0%	-1.7	x	4.7
COc1ccc(/C=C2/SC(c3ccc(C)cc3)=NC2=O)cc1OC	-6.0	-1.3%	-7.0	14.0	-3.0
CCOc1cc(C2C3=C(CCCC3=O)OC3=C2C(=O)CCC3)cc([N+](=O)[O-])c1O	13.3	2.2%	-1.5	x	5.4
CC1CCN(S(=O)(=O)c2ccc(NC(=O)CSc3nnnn3C)cc2)CC1	-5.8	-15.5%	-3.1	-5.2	0.8
CC(=O)N(CC(=O)Nc1nn(-c2ccccc2)nc1C(N)=O)Cc1ccccc1	1.8	-2.1%	-1.0	-24.6	1.1
O=C(O)C1CCCN1C(=O)Nc1ccc(Cl)cc1 (stereo not drawn)	1.2	-5.2%	6.1	-23.7	-1.4
CS(=O)(=O)N1CCN(c2ncccn2)CC1	-1.1	-7.5%	2.2	35.6	-7.8
Cc1nc2ccccc2c2oc(C(=O)N3CCN(c4ccc([N+](=O)[O-])cc4)CC3)cc12	x	x	-1.8	x	14.6
CCOc1ccc(OCC)c(NC(=O)C2CCCN(c3nc(C)cc(C)n3)C2)c1 (stereo not drawn)	-6.9	2.1%	2.0	-41.3	-9.6
COc1ccc(F)cc1S(=O)(=O)n1nnc2ccccc21	2.0	5.0%	-2.0	x	-12.2
O=C(CC12CC3CC(CC(Br)(C3)C1)C2)NC1=NCCS1	9.1	-4.4%	-3.4	x	-8.7
O=C(NCc1ccc2c(c1)OCO2)c1ccccn1	-4.0	-2.7%	-2.5	-21.9	2.4
CN1CCN(Cc2cn(C)c3ccccc23)CC1CCO (stereo not drawn)	x	x	2.7	x	-5.0
O=C(CSc1nnnn1C1CCCC1)N1CCOCC1	3.4	-4.4%	x	x	-5.2
CCOc1ccc(Nc2nc(Cc3nnc(SCC(=O)c4ccc(C)cc4)o3)cs2)cc1	3.3	-5.0%	-2.4	-19.0	6.5
Cc1ccc(C(=O)NNC(=O)C2CSC3(C)CCC(=O)N23)cc1 (stereo not drawn)	x	x	-0.3	x	-10.4
CCOC(=O)/C(C#N)=C\c1ccc(N2CCN(C)CC2)cc1	-0.3	-2.8%	2.7	-9.9	8.3
Cc1cc2cc(C(=O)N3CCc4c([nH]c5ccccc45)C3c3ccccn3)ccc2o1 (stereo not drawn)	x	12.3%	14.3	x	10.1
CN1CCCN(C(=O)C2CCCCC2)CC1	6.8	-0.8%	-2.1	x	4.5
C=CCNc1nc2c(c(=O)[nH]c(=O)n2C)n1Cc1cccc(C)c1	-7.9	-2.1%	x	-47.3	x	Arbovirus anti repeat=1.0
Cc1ccc(S(=O)(=O)CCC(=O)OCC(=O)N2CC(=O)Nc3ccccc32)cc1	-0.4	-1.5%	-10.6	-38.7	-15.9
CCOc1cccc(NC(=O)C2CC(=O)N(C)C2)c1 (stereo not drawn)	5.3	-10.3%	-1.6	-25.2	4.7
CC(C(=O)Nc1ccccc1Oc1ccccc1)c1ccccc1 (stereo not drawn)	-11.7	4.8%	1.4	-7.0	7.9
Cc1ccc(OCCn2c(=S)[nH]c3c(N)ncnc32)cc1	-11.4	-16.4%	-2.7	x	-12.4
The results go on.
SMILES	Arbovirus anti	Mtb H37Rv	RecA intein inh	YopH PTP inh	Mtb bLac sens	others
c1ccc(C[C@H]2CN=C(Nc3ccccc3)N2CCCC2CCCC2)cc1	x	x	6.7	x	40.4
O=C(O)c1cccc(N2C(=O)c3cccc4c(Cl)ccc(c34)C2=O)c1	-2.1	-2.3%	-7.1	x	-2.0
CCOc1ccc(CNC(=O)c2nnc(CS(=O)(=O)c3ccccc3)o2)cc1OC	x	x	-3.5	x	-2.7
CC(=O)Nc1ccc([As](=O)(O)c2ccc([N+](=O)[O-])cc2)cc1	x	-3.7%	0.4	x	9.3
CCC(C)Nc1nc2c(c(=O)n(C)c(=O)n2C)n1C (stereo not drawn)	x	-14.7%	0.0	x	-0.3
CCNC(=S)Nc1ccccc1-c1ccccc1	8.7	-1.4%	-2.8	-10.4	0.2
Cn1ccnc1C(O)(c1ccccc1)c1ccccc1	x	10.0%	-0.3	x	-2.4
COc1cccc(-c2nnc(NC(=O)c3cccc(F)c3)o2)c1	-24.6	u	2.5	x	96.8	Arbovirus anti repeat=-4.9
C[C@@H]1C=C(C(=O)NCc2nc3ccccc3[nH]2)O[C@H](OCCCCO)C1	x	-8.6%	-1.8	x	-5.0
CCO[C@@H]1OC(C(=O)N2CCN(Cc3ccc4c(c3)OCO4)CC2)=C[C@H](c2ccc(Br)cc2)[C@H]1CCCO	-17.9	15.2%	4.9	x	73.6
CC(C)c1c(O)cc(-c2ccncc2)n(-c2ccc(Cl)cc2)c1=O	1.9	-2.4%	-0.8	-5.4	7.6
Nc1nonc1C(=O)NCCNc1ccc([N+](=O)[O-])cc1	x	-1.5%	1.8	x	-5.8
Cc1cc(C)nc(Nc2n[nH]c(COc3ccc4ccccc4c3)n2)n1	7.5	-0.3%	-0.8	-18.6	9.3
CCOc1cc(-c2cc(-c3ccc(C)cc3)nc(N)c2C#N)ccc1O	-11.9	32.5%	2.3	-15.2	81.3
COc1cccc(NC(=O)CSc2nn3c(=O)c(C)nnc3s2)c1	x	x	-1.9	x	-2.2
CN(c1ccc(C(=O)O)cc1)S(=O)(=O)c1ccc(Cl)cc1	3.2	1.5%	2.0	-1.6	-6.5
Cc1nn(Cc2ccccc2)c(=O)n1N(C)c1ncc(C(F)(F)F)cc1Cl	7.1	-1.0%	2.1	5.5	-7.8
CCCCOC(=O)Nc1cccc(C(=O)OCC)c1	-0.4	4.0%	0.3	3.3	-4.1
COc1ccc(OC)c(NC(=O)C2CCCCC2C(=O)O)c1 (stereo not drawn)	0.5	5.0%	-0.2	-4.6	5.1
CC(C)c1csc(CN2CCCC(CCC(=O)NCc3ccccc3F)C2)n1 (stereo not drawn)	-18.0	35.4%	0.3	x	8.5
O=C(COC(=O)c1cc(-c2cccnc2)nc2ccccc12)Nc1ccc(F)cc1F	-5.9	1.4%	-0.6	-23.0	-0.4
O=c1c(-c2ccco2)[n+]([O-])c2ccccc2n1OCc1ccccc1	0.1	x	-6.9	8.6	6.1
Cc1cccc(Oc2c(C=O)c3ccccc3n2C)c1	-6.6	5.0%	25.8	-36.3	-8.5
CCCCNC(=O)C1CCCN(S(=O)(=O)c2ccc(-n3cnnn3)cc2)C1 (stereo not drawn)	16.1	-6.0%	2.5	-56.4	-0.5
CCOC(=O)N1CCN(C(=O)COc2ccc([N+](=O)[O-])cc2)CC1	-1.5	-1.7%	2.5	x	-2.0
Cc1ccc(NC(=O)c2cc(S(=O)(=O)N3CCOCC3)cn2C)c(C)c1	x	x	-0.8	x	-1.6
CN1C(=O)C(C)(C)c2cc(S(=O)(=O)NCC3CCC(C(=O)NCc4ccc(F)cc4)CC3)ccc21 (stereo not drawn)	x	x	2.4	x	3.3

Arranged by length of the SMILES (lowest first): 16 of the compounds above
SMILES	Arbovirus anti	Mtb H37Rv	RecA intein inh	YopH PTP inh	Mtb bLac sens	others
CCNC(=S)Nc1ccccc1-c1ccccc1	8.7	-1.4%	-2.8	-10.4	0.2
CCCCOC(=O)Nc1cccc(C(=O)OCC)c1	-0.4	4.0%	0.3	3.3	-4.1
Cn1ccnc1C(O)(c1ccccc1)c1ccccc1	x	10.0%	-0.3	x	-2.4
Cc1cccc(Oc2c(C=O)c3ccccc3n2C)c1	-6.6	5.0%	25.8	-36.3	-8.5
COc1ccc(OC)c(NC(=O)C2CCCCC2C(=O)O)c1 (stereo not drawn)	0.5	5.0%	-0.2	-4.6	5.1
COc1cccc(-c2nnc(NC(=O)c3cccc(F)c3)o2)c1	-24.6	u	2.5	x	96.8	Arbovirus anti repeat=-4.9
COc1cccc(NC(=O)CSc2nn3c(=O)c(C)nnc3s2)c1	x	x	-1.9	x	-2.2
CN(c1ccc(C(=O)O)cc1)S(=O)(=O)c1ccc(Cl)cc1	3.2	1.5%	2.0	-1.6	-6.5
CCOc1cc(-c2cc(-c3ccc(C)cc3)nc(N)c2C#N)ccc1O	-11.9	32.5%	2.3	-15.2	81.3
c1ccc(C[C@H]2CN=C(Nc3ccccc3)N2CCCC2CCCC2)cc1	x	x	6.7	x	40.4
O=c1c(-c2ccco2)[n+]([O-])c2ccccc2n1OCc1ccccc1	0.1	x	-6.9	8.6	6.1
Cc1nn(Cc2ccccc2)c(=O)n1N(C)c1ncc(C(F)(F)F)cc1Cl	7.1	-1.0%	2.1	5.5	-7.8
O=C(COC(=O)c1cc(-c2cccnc2)nc2ccccc12)Nc1ccc(F)cc1F	-5.9	1.4%	-0.6	-23.0	-0.4
C[C@@H]1C=C(C(=O)NCc2nc3ccccc3[nH]2)O[C@H](OCCCCO)C1	x	-8.6%	-1.8	x	-5.0
CN1C(=O)C(C)(C)c2cc(S(=O)(=O)NCC3CCC(C(=O)NCc4ccc(F)cc4)CC3)ccc21 (stereo not drawn)	x	x	2.4	x	3.3
CCO[C@@H]1OC(C(=O)N2CCN(Cc3ccc4c(c3)OCO4)CC2)=C[C@H](c2ccc(Br)cc2)[C@H]1CCCO	-17.9	15.2%	4.9	x	73.6
